Screens from PubChem.
Ba CapD inh: CapD enzyme inhibition; purified CapD enzyme, fluorescence intensity read-out; stronger effect = lower value; some hits fall short of the stated cut; z-score (no concentration beside the values); hit rate 0.23% among 140,000;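 active = z-score under -4 in either of two replicates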;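 note: stock transfer was 100 nL into about 40 µL; score is relative to mean and spread of the plate; one replicate is shown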
AID504770: E. coli YBA685 growth inhibition, screen for V. cholerae RctB inhibitors | E. coli YBA685 rctB-dependent plasmid, OD600 growth, 3 h; stronger effect = lower value | z-score (test concentration not listed) | hit rate 0.27% among 130,000 | AID 504770;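 active = z-score under -2 on both plates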;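 note: wells of about 30 µL received 100 nL stock; score is relative to mean and SD of the test wells; the first replicate is given; strong numbers were not always called active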
Starred values were filed as active, the others as inactive; · = no result given; & = joins results of further samples. Only part of the results is shown; the hit share may differ from the screen's.

SMILES	Ba CapD inh	AID504770
O=C(CSC1=NCCS1)N1CCN(c2ccc(Cl)cc2)CC1	·	-0.55
COc1ccc(C2CC(=O)C3=C(C2)NC(C)=C(C(=O)OCC(C)C)C3c2ccc(OC)c(OC)c2)cc1 (centres undefined)	32	·
CN1CCN(c2c(C(=O)c3ccccc3)cnc3ccc(Cl)cc23)CC1	-1.1	-0.8
CC(C)Cc1ccc(S(=O)(=O)N2CCCc3ccccc32)cc1	0.98	·
CCc1ccccc1NC(=O)c1ccc2nc(N3CCC(C)CC3)sc2c1	0.15	-0.9
COc1ccc2ccccc2c1CN1CCN(C(=O)OCc2cccc(C)n2)CC1	2.2	·
NC(=O)c1ccc(NC(=O)CSc2nc3ccccc3[nH]2)cc1	0.65	-0.8
CS(=O)(=O)NCCS(=O)(=O)N1CCN(c2ccccc2)CC1	·	0.1
O=C(Oc1ccc(-c2nnco2)cc1)c1ccc2c(c1)S(=O)(=O)c1ccccc1C2=O	·	0.45
O=C(Cc1ccsc1)NCC1COc2ccccc2O1 (centres undefined)	·	0.45
O=c1c2ccccc2nc(/C=C/c2cc(Br)ccc2O)n1-c1cccc(O)c1	0.24	·
CCOC(=O)c1cc2c(nc1NC(=S)NC(=O)c1ccccc1)CC(C)(C)OC2	6.9	·
C=CCn1c(SC)nc2sc3c(c2c1=O)CCCC3	0.44	0.3
COc1ccc(CCNC(C)C(=O)Nc2ccc(S(N)(=O)=O)cc2)cc1 (centres undefined)	·	-0.5
O=c1[nH]c(O)c(C=Nc2nc3ccccc3nc2N2CCCC2)c(=O)[nH]1	·	0.95
COC(=O)c1c(C)nn(-c2ccc(F)c(Cl)c2)c1-c1cc(C)on1	-1.8	2.8
CCC(C)Nc1nc(NC)nc(NC(C)CC)n1 (centres undefined)	·	-0.05
O=C(OCC1CCCCO1)N1CCc2c([nH]c3ccccc23)C1 (centres undefined)	0.66	·
O=C(C1CC(=O)N(C2CCCC2)C1)N1CCC(c2nc3ccccc3s2)CC1 (centres undefined)	·	-1
Cc1nc2ccc(NC(=O)/C=C/c3ccccc3)cc2s1	-2	-0.4

Whole records from above. Order of screens: Ba CapD inh | AID504770
`CCc1ccccc1NC(=O)c1ccc2nc(N3CCC(C)CC3)sc2c1` in the list: 0.15 | -0.9
`O=C(C1CC(=O)N(C2CCCC2)C1)N1CCC(c2nc3ccccc3s2)CC1` (centres undefined) in the list: · | -1
`O=c1c2ccccc2nc(/C=C/c2cc(Br)ccc2O)n1-c1cccc(O)c1` in the list: 0.24 | ·
`CC(C)Cc1ccc(S(=O)(=O)N2CCCc3ccccc32)cc1` in the list: 0.98 | ·
`O=C(Oc1ccc(-c2nnco2)cc1)c1ccc2c(c1)S(=O)(=O)c1ccccc1C2=O` in the list: · | 0.45

The list goes on.
SMILES	Ba CapD inh	AID504770
CC(C)CSc1nnc2sc3ccccc3n12	0.23	0.05
Cc1ccc(Cl)cc1-n1c(SCC(=O)NCCc2ccc(S(N)(=O)=O)cc2)nc2n[nH]c(C)c2c1=N	-0.43	·
CCOC(=O)C1=C(c2ccccc2)OC(N)=C(C#N)C12C(=O)Nc1ccc(Br)cc12 (centres undefined)	-0.43	·
CCOC(=O)c1c(-c2ccccc2)n(C)c2ccc(O)cc12	34	0
N#CCCN(CC1CCCO1)C(=S)Nc1ccc(F)cc1 (centres undefined)	0.24	-1
COc1cccc(C2C(N3C(=O)c4ccccc4C3=O)C(=O)N2c2cccc(C(F)(F)F)c2)c1 (centres undefined)	0.065	·
COc1ccc(C2CC2/C(C)=N/O)cc1 (centres undefined)	0.29	0.1
O=c1c2cccc3c2c(nn1CCN1CCCCC1)-c1ccccc1-3	·	0.6
COc1ccc(-c2nc3ccccn3c2NC(=O)CC(C)C)cc1	24	0.85
O=C1/C(=C/c2ccc([N+](=O)[O-])cc2)C=C(c2ccccc2)N1c1ccc(Cl)cc1Cl	-0.28	·
CC(C)CCNC(=O)c1cc(-c2ccccn2)nc2ccccc12	0.14	-0.15
CCOCCn1cnc2sc(C(=O)N3CCCc4ccccc43)c(C)c2c1=O	6.1	·
CSC1=NC(C)(C)CCC12C=CC(=O)C=C2	0.44	-0.35
O=C(Cc1cccs1)Nc1ccc2c(c1)OCCO2	-0.11	-0.55
Cc1n[nH]c(=O)c2nc(-c3ccccc3)sc12	50	-0.7
S=c1nc(C23CC4CC(CC(C4)C2)C3)[nH][nH]1	0.045	-0.75
NC(=O)COc1ccc(S(=O)(=O)N2CCCC2)cc1Cl	-0.62	-0.05
CCOC(=O)N1CCN(C(=O)C2CCN(c3nc4ccc(CC)cc4s3)CC2)CC1	0.15	-0.35
O=C1CN(C(=O)C2CC2)c2ccccc2N1	·	-0.55
Cc1ccc2[nH]c3c(=O)n(CCCN(C)C4CCCCC4)cnc3c2c1	5.7	-0.85
COc1ccc(C(=O)N[C@H](C(=O)N(C)Cc2ccc(N3CCCCC3)cc2)C(C)C)cc1	·	-0.55
COc1ccccc1/C=C/C(=O)OCC(=O)Nc1ccccc1C(C)C	19	0.8
O=C(CC1C(=O)NCCN1C(=O)c1ccccc1)Nc1cccc(Cl)c1 (centres undefined)	0.42	-0.1
CCC(=O)Nc1ccccc1C(=O)OCC(=O)c1ccccc1	0.84	1.1
O=C(Sc1ccc(Cl)cc1)N1CCOCC1	-0.085	0.7
Cc1cc2c3c(c1)c(O)cc(=O)n3CCC2	2.3	·
COP(=O)(OC)C(NC(=O)c1ccc(C)cc1)C(Cl)(Cl)Cl (centres undefined)	-0.24	·
OCCSc1nnc2c(n1)[nH]c1ccccc12	·	0.4
O=C(Cn1cc(/C=C2/SC(=O)NC2=O)c2ccccc21)Nc1ccccc1	0.045	1.4
CCN(CC)S(=O)(=O)c1ccc(NC(=O)COC(=O)C2=NNC(=O)CC2)cc1	·	-0.45
CC(=O)NCc1ccc(C(=O)CSc2nnc(C3COc4ccccc4O3)n2C)cc1 (centres undefined)	·	-0.95
Nc1nc(SCC(=O)N2CC(=O)Nc3ccccc32)n[nH]1	·	-0.25
CC1CCN(CCC(=O)Nc2sc3c(c2C#N)CCCC3)CC1	0.15	0.4
O=C(NCCSCc1ccco1)c1cnn(-c2ccccc2)c1C(F)(F)F	0.36	·
O=C(c1cccc2c1-c1ccccc1C2)N1CCOCC1	-0.54	-0.5
CCCn1c(N)c(C(=O)CN(C)Cc2ccc(CC)cc2)c(=O)n(C)c1=O	·	0.9
CC1=C(C(=O)Nc2ccc(C)cn2)C(c2ccc(Cl)c([N+](=O)[O-])c2)C2=C(CC(C)(C)CC2=O)N1 (centres undefined)	-0.69	·
Cc1ccc(-c2nnc(Nc3ccc(S(N)(=O)=O)cc3)c3ccccc23)cc1S(N)(=O)=O	0.035	2.5
CC(C)OC(=O)CCC1(C(=O)O)CCC(=O)NC1 (centres undefined)	·	-0.25
CSc1nc(Sc2ccc(Cl)cc2)c2sc3ccccc3c2n1	1	·

The last four compounds of the section before come first, to join the parts:
SMILES	Ba CapD inh	AID504770
CC1=C(C(=O)Nc2ccc(C)cn2)C(c2ccc(Cl)c([N+](=O)[O-])c2)C2=C(CC(C)(C)CC2=O)N1 (centres undefined)	-0.69	·
Cc1ccc(-c2nnc(Nc3ccc(S(N)(=O)=O)cc3)c3ccccc23)cc1S(N)(=O)=O	0.035	2.5
CC(C)OC(=O)CCC1(C(=O)O)CCC(=O)NC1 (centres undefined)	·	-0.25
CSc1nc(Sc2ccc(Cl)cc2)c2sc3ccccc3c2n1	1	·
O=C(C/C(=N\Nc1nc(-c2ccccc2)cs1)c1ccccc1)C(F)(F)F	2.6	·
Cc1ccc(S(=O)(=O)CCNC(=O)c2c(-c3c(Cl)cccc3Cl)noc2C)cc1	-1	·
C=CCn1c(SC(C)C(N)=O)nnc1C1CCCCC1 (centres undefined)	·	-2.5
COC(=O)C1(C)Cc2ccccc2C(=O)O1 (centres undefined)	0.035	1.4
CC1CCCC(C)N1C(=O)CSCc1ccco1 (centres undefined)	-0.67	-0.45
CCOC(=O)C1CCN(c2nc(-c3ccc(OC)c(OC)c3)nc3ccccc23)CC1	-0.43	·
Cc1c(-c2ccc(Cl)cc2)nc2ccccc2c1C(=O)Nc1ccc(S(N)(=O)=O)cc1	-0.45	·
O=C(OCCn1ccnc1)c1ccc(-c2ccccc2)cc1	·	0.55
O=C1NC(=O)N(CCC2=CCCCC2)C(=O)/C1=C\c1cc2c3c(c1)CCCN3CCC2	0.81	0.75
O=C(NCCN1CCOCC1)c1nn2c(C(F)(F)F)cc(-c3ccccc3)nc2c1Cl	0.38	·
O=C(NCCN1CCCCC1)c1ccc(/C=N/O)nc1	·	-0.45
Cc1ccc(C2=NNC(c3cccs3)S2)cc1 (centres undefined)	43	0.9
COC(=O)c1ccc(C(=O)OC)c(NC(=O)c2cc(-c3ccc(C)o3)nc3ccccc23)c1	0.055	·
Cc1cccc(N(C)S(=O)(=O)c2ccc3c(c2)CCC(=O)N3)c1	0.005	1.4
O=C(Cc1nc(-c2cccs2)no1)Nc1ccc(F)cc1	-0.61	-1.2
COc1cc(OC)c(NC(C)C(=O)Nc2cccc(C#N)c2)cc1Cl (centres undefined)	·	-1.4
CCC(Sc1ccc(Cl)cc1)C(=O)Nc1nnc(-c2ccccc2)s1 (centres undefined)	-1	1.9
CCCCCCN1C(=O)C(=O)/C(=C(\O)c2ccc(C)cc2)C1c1ccc(OC)cc1OC (centres undefined)	-0.34	·
O=C1CCCc2oc3c(Br)cc(NS(=O)(=O)c4ccc(Br)cc4)cc3c21	-0.12	·
CC(COc1ccc2c(c1)OCO2)NC(=O)Cc1n[nH]c(=O)c2ccccc12 (centres undefined)	-0.45	-0.45
COC(=O)c1cc2c(C)nn(C)c2s1	-0.055	-0.4
Cc1cc(C)nc(SCC(=O)N(c2ccccc2)C(C)C)n1	-0.055	-0.6
O=C1/C(=C/c2cccs2)CCSc2ccccc21	-0.4	0.05
COc1ccc(N=Cc2cn(-c3ccccc3)nc2-c2cc3ccccc3o2)cc1	0.2	1.2
CCC(C)NC(=O)c1cc(C2CC2)on1 (centres undefined)	-0.78	1.8
CCN(CC)C(=O)C1CCC(=O)N(c2ccc(OC)cc2)C1c1ccc(OC)c(OC)c1 (centres undefined)	0.23	-0.8
Cc1cccc(C2CC(=O)NC3=C2C(=O)CC(c2cccs2)C3)c1 (centres undefined)	-1.4	-0.65
COc1ccc(Cc2nnc(SCC(=O)Nc3ccc(F)cc3)o2)cc1	0.34	-0.05
N#C/C(=C\c1ccncc1)c1ccc(NC(N)=O)cc1	2.7	-0.05
COc1cccc(NS(=O)(=O)c2cc(OC)ccc2OC)c1	0.61	-0.2
CCOc1ccc(Nc2ccc3noc4c3c2C(=O)c2ccccc2-4)cc1	0.19	·
CN(C)/C=C/c1cc2c(cn1)C(=O)c1ccccc1-2	-2.2	0.45
C=CCOC(=O)c1sc(SC)c2c1CC(C)(C)CC2=O	0.015	·
CC(=O)N1CCC(N2Cc3ccccc3-n3cccc3C2c2ccco2)CC1 (centres undefined)	-0.18	·
C[C@H](CCC(=O)O)[C@H]1CC[C@H]2[C@@H]3CC[C@@H]4C[C@H](O)CC[C@]4(C)[C@H]3CC[C@]12C	-0.28	·
CCOc1ccc2nc(SCc3nnc(-c4cccs4)o3)sc2c1	·	-0.15
Cc1ccc(C2=C/C(=C\c3ccccc3C)C(=O)O2)cc1	-0.79	-0.35
CN(C)c1ccc(C2C3=C(Nc4ncnn42)c2ccccc2OC3c2ccc(Br)cc2)cc1 (centres undefined)	-0.28	·
CCC(=O)N1CCc2cc(S(=O)(=O)CCC(=O)O)ccc21	·	-0.4
CN(C)C1=NP(N(C)C)(N(C)C)=NC(c2ccccc2)=N1	·	-0.55

Quoted at random: 3 compounds from above.
SMILES	Ba CapD inh	AID504770
COc1ccc(N=Cc2cn(-c3ccccc3)nc2-c2cc3ccccc3o2)cc1	0.2	1.2
CN(C)C1=NP(N(C)C)(N(C)C)=NC(c2ccccc2)=N1	·	-0.55
Cc1ccc(C2=C/C(=C\c3ccccc3C)C(=O)O2)cc1	-0.79	-0.35

(list continues)
SMILES	Ba CapD inh	AID504770
CC(C)n1c(NCc2ccccc2)nc2c1c(=O)[nH]c(=O)n2C	·	-0.3
CSC1=NCN(Cc2ccccc2)CN1	-0.35	·
O=C(c1ccno1)N1CCN(C2c3ccccc3-c3ccccc32)CC1	-0.17	0
NNc1nc2cc3c(cc2s1)OCO3	-0.28	-0.65
COc1ccc(CNCC(O)(c2ccccc2)c2ccc(F)cc2)cc1 (centres undefined)	0.05	·
CCCCCCOc1ccc(OC(=O)c2cccc(I)c2)cc1	-1.1	·
Cc1ccc(C2=Nc3ccccc3N=C(c3ccccc3)C2)c(O)c1	-0.36	·
Cc1ccc(CNC(=S)N2CCOCC2)cc1	0.7	-0.3
CCS(=O)(=O)c1ccc2nc(SCc3ccccc3Cl)oc2c1	0.18	·
C=CCN1C(=O)C(C(=O)Nc2ccccc2)C2c3ccccc3OC13CCCCC23 (centres undefined)	0.065	1.5
O=C1CSC(c2ccccn2)N1Cc1cn2ccccc2n1 (centres undefined)	0.61	-1.1
O=c1cc(-c2ccc(F)cc2)c2c([nH]1)Oc1c(nc(-c3ccccc3)[nH]c1=O)O2	0.09	0.55
Cc1ccc(-c2ccc(C)c(N)c2C)c(C)c1N	0.45	-0.2
O=c1cc(-c2ccc(O)cc2)oc2cc(O)cc(O)c12	-0.18&-0.64	1.8
CN(C(=O)c1ccccc1)C1CCS(=O)(=O)C1 (centres undefined)	·	-0.35
COC(=O)C1=C(C)N(Cc2cccnc2)C(=O)/C1=C\c1ccccc1C(F)(F)F	4.4	0.1
O=C1CCC2CC1CCC2=O	·	-0.4
Cc1ccc(-c2nc(C=Nc3ccccc3)c(O)o2)cc1	0.67	0
Cc1ccc(SC(C)c2nc(-c3ccncc3)no2)cc1 (centres undefined)	0.56	-0.5
CCOC(=O)c1csc(-c2ccc(Cl)cc2)n1	-0.7	1.4
COC(=O)C1=C(NC(=O)c2ccc(S(=O)(=O)N3CCCCC3)cc2)CCS1	·	-0.3
O=C1NC(=S)N/C1=C/c1cc(I)cc(I)c1O	-0.72	·
